PrP 5UTR inh – inhibition of PrP 5' UTR reporter expression. cell-based PrP 5' UTR mRNA reporter, plate reader. inhibition, % (no concentration beside the values). 340,000 compounds, 0.35% hits;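 active = every replicate at 50% or more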;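 note: 0 = median of the neutral control wells; tested in H4 reporter cells; numbers are from one replicate; inactives centre near -14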
Autofluor counter – compound fluorescence in toxin protease inhibitor counterscreen; 360,000 compounds, 3.1% hits; fluorescence intensity (test concentration not listed); AID 624483; compound autofluorescence counterscreen, microsphere flow cytometry; hits give high values;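 active = at least 3 SD above the mean of all compounds, about 16000 in these data; inconclusive = too few beads counted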;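 note: 100 nL of 1 mM stock went into each well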
RN4220 kill – growth inhibition of S. aureus RN4220, primary screen, OD600; 16 h; inhibition, % (no concentration beside the values); 330,000 compounds, 0.33% hits;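 active = z-score of -3 or lower and OD600 up to 0.18 on both plates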;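 note: plate controls were untreated cells for no effect and reference antibiotic for full effect; stock transfer was 100 nL into about 80 µL; one replicate is shown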
Mtb hypoxia rep – PubChem AID 1159583 | M. tuberculosis hypoxia-regulated fluorescent reporter, fluorescence | 300,000 compounds, 0.1% hits | fluorescence inhibition, % (concentration not given with the values);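 active = 35 to 45% if threefold the growth effect, above 45% if 1.5-fold the growth effect; inactive = the rest, general growth blockers included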;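 note: wells of about 50 µL received 100 nL stock; 0% = vehicle wells and 100% = reference inhibitor wells; whole bacteria with a GFP reporter of the hypoxia response; strong numbers were not always called active; many hits fall short of the cut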
BJeLR lethal – MLPCN primary cell-based screen for lethality selective to Ras in HRASV12 cells. BJeLR (HRASV12) viability, CellTiter-Glo ATP luminescence, 48 h; reference of the scale not given here. inhibition, % (concentration not given with the values). 300,000 compounds, 0.17% hits;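 active = replicate mean above 50%; inconclusive = above 50% but judged a plate artefact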;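 note: 50 nL library stock added to about 25 µL; numbers are from one replicate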
Sa ugtP lethal – growth inhibition of ugtP-null S. aureus, primary screen, RN4220 ugtP deletion, OD600. 16 h; some inactives read as strong as hits. growth inhibition, % (no concentration beside the values). 330,000 compounds, 0.54% hits. AID 1259309, 2017;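 active = z-score under -3 and OD600 up to 0.15 on both plates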;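 note: plate controls were untreated wells for no effect and antibiotic for full effect; wells of about 80 µL received 100 nL stock; the first replicate is given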
Mtb hypoxia rep growth – recorded beside Mtb hypoxia rep, whose call it bears; growth inhibition, %; measured here: M. tuberculosis growth (absorbance);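 0% = vehicle and 100% = reference antibiotic; read after six days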
Numbers without * were called inactive; u = inconclusive; x = no result given; & = joins results of further samples.

canonical_smiles,Mtb hypoxia rep growth,Autofluor counter,BJeLR lethal,Sa ugtP lethal,RN4220 kill,PrP 5UTR inh,Mtb hypoxia rep
COc1ccc(OC)c(-c2csc(NC(=O)C3c4ccccc4Oc4ccccc43)n2)c1,-2,7791,0,-11,-5.1,-1,1
O=C(COC(=O)COc1ccc(Cl)cc1)Nc1ncc(Br)s1,3,5930,x,3,1.6,-9,3
CN(Cc1ccccc1)Cc1c[nH]c2ccccc12,x,2314,4,-3,-1.8,-16,x
COc1ccccc1NC(=O)c1ccc(C)s1,0,11007,9,-7,4.2,-64,-19
Cc1cc(C)cc(OCCN2CCOCC2)c1,8,3459,-2,10,1.1,-9,6
Cc1ccccc1Nc1nnc(SCC(=O)c2cc3ccccc3o2)s1,x,2991,-4,x,x,-10,x
Cc1cc(C(=O)Nc2sccc2C(N)=O)c(C)o1,12,4530,x,-4,0.8,-19,11
O=C(CCc1ccccc1)Nc1ccccc1F,x,2411,2,2,-1.1,-42,x

The final two entries of the part before come first, to join the parts:
canonical_smiles,Mtb hypoxia rep growth,Autofluor counter,BJeLR lethal,Sa ugtP lethal,RN4220 kill,PrP 5UTR inh,Mtb hypoxia rep
Cc1cc(C(=O)Nc2sccc2C(N)=O)c(C)o1,12,4530,x,-4,0.8,-19,11
O=C(CCc1ccccc1)Nc1ccccc1F,x,2411,2,2,-1.1,-42,x
Cc1occc1C(=O)NCc1nc(-c2ccc(Cl)cc2)no1,2,3856,-6,8,-1.0,-20,12
COc1ccc(C2=CC(=O)CC(c3ccc(F)cc3)C2)c(F)c1F (stereo not drawn),11,x,x,-13,-8.1,x,10
COc1cccc(NC(=O)Nc2cc(NC(=O)Nc3cccc(OC)c3)c(C)nc2C)c1,10,2799,-3,5,-0.9,-20,-7
COc1cccc(C(=O)NCCS(=O)(=O)NCc2cccs2)c1,-1,u,5,4,0.0,-4,7
CC(OC(=O)c1ccc2c(c1)OCCO2)C(=O)c1ccccc1 (stereo not drawn),0,5812,5,5,-1.5,-82,-5
Cc1nc(CN(C)C(=O)CC2C(=O)NCCN2Cc2ccc(F)cc2)cs1 (stereo not drawn),-4,4228,-3,3,1.3,7,2
CC(=O)c1ccc(N2C(=NC(=O)C(C)C)SC3CS(=O)(=O)CC32)cc1 (stereo not drawn),12,4494,-7,-9,-2.5,-11,3
CC/C(C)=C1\SC(N2CCN(c3cccc(C(F)(F)F)c3)CC2)=NC1=O,13,8791,-2,-21,7.0,-32,12
C#CCOCCOCCOCCNc1nc(N2CCN(C(=O)Cn3cc(CCCN=C(N)N)nn3)CC2)nc(N2CCN(C(=O)C(C(C)CC)n3cc(CCC(=O)O)nn3)CC2)n1 (stereo not drawn),4,x,x,0,4.2,x,6
O=C(NCc1ccccc1)C1=CC(C2CC2)CC(OCc2ccc(CO)cc2)O1 (stereo not drawn),7&4,x,x,1&-4,3.5&6.3,x,17&7
CCCn1c(SCC(=O)N2CCCC(C)C2)nnc1-c1ccccn1 (stereo not drawn),3,4427,-8,-12,-0.3,-9,-12
CCC(C)N1C(=O)/C(=C\c2ccc(N3CCCCCC3)cc2)C(=O)NC1=S (stereo not drawn),13,9133,1,13,2.7,-17,12
Fc1ccccc1NC(=S)Nc1ccc(CN2CCOCC2)cc1,-6,4370,-4,-9,-1.8,-18,1
CC(C)c1ccc(NC(=S)Nc2cccc3ccccc23)cc1,3,5035,6,14,-4.0,-24,6
COc1ccc(OC)c(/C=N/c2oc(-c3ccco3)c(-c3ccco3)c2C#N)c1,x,4630,-4,x,x,-13,x
Cc1ccc(OCC(=O)NNC(=O)C2CCN(c3nc(C)cc(C)n3)CC2)cc1,14,5076,-4,-3,1.4,-7,4
Cc1onc(C(=O)/C=C/N(C)C)c1C(=O)Nc1nccs1,x,2762,-2,7,0.5,-4,x
Cc1ccc(C)c(NC(=O)c2ccccc2NC(=O)C2CCCO2)c1 (stereo not drawn),-3,2446,5,9,-1.0,-20,0
Cc1cccc(CCN(CC(=O)NCc2ccc(F)cc2)C(=O)c2csnn2)c1,-11,4382,-17,-4,-4.1,-5,-7
Cn1cc(Cl)c(-c2nc3ccccc3[nH]2)n1,10,u,9,-8,-7.5,-29,11
Cc1ccccc1NC(=O)N1CCC(NC(=O)C2CCCCC2)CC1,-4,5879,-4,2,0.9,2,-12
O=C(COC(=O)c1cc(S(=O)(=O)N2CCOCC2)c(Cl)cc1Cl)c1ccc[nH]1,7,3632,x,5,5.4,-13,11
O=C(CCNC(=O)c1ccccc1)NN=Cc1ccc(Br)o1,-1,2977,x,0,0.5,-15,-5
Cc1ccc(NC(=O)c2ccc(Cl)c(S(=O)(=O)N3CCCCCC3)c2)nc1,14,u,7,-8,5.3,-6,2

Compound profiles, from the list above:
O=C(CCNC(=O)c1ccccc1)NN=Cc1ccc(Br)o1 reads Mtb hypoxia rep growth: -1; Autofluor counter: 2977; BJeLR lethal: x; Sa ugtP lethal: 0; RN4220 kill: 0.5; PrP 5UTR inh: -15; Mtb hypoxia rep: -5
Cc1ccc(C)c(NC(=O)c2ccccc2NC(=O)C2CCCO2)c1 (stereo not drawn) reads Mtb hypoxia rep growth: -3; Autofluor counter: 2446; BJeLR lethal: 5; Sa ugtP lethal: 9; RN4220 kill: -1.0; PrP 5UTR inh: -20; Mtb hypoxia rep: 0

New compounds follow:
canonical_smiles,Mtb hypoxia rep growth,Autofluor counter,BJeLR lethal,Sa ugtP lethal,RN4220 kill,PrP 5UTR inh,Mtb hypoxia rep
CCC(C)NC(=O)C1CCN(S(=O)(=O)c2ccc(-n3cnnn3)cc2)CC1 (stereo not drawn),5,4420,3,-2,-2.0,-45,2
CN(C)c1nccc(N(Cc2ccccc2)Cc2ccccc2)c1C#N,x,2415,-4,11,1.0,-32,x
C=CCN1C(=O)/C(=C/c2cc(C)n(-c3ccccn3)c2C)C(=O)NC1=S,-3,7495,2,0,2.3,-18,-5
COc1ccc(CCC(=O)OCC(=O)c2ccc[nH]2)cc1OC,2,4036,x,2,3.9,-9,-2
CC(C)(C)NC(=O)CSc1n[nH]c(=O)n1-c1ccccc1,1,20863*,1,3,0.4,-7,10
COc1ccc(OC)c(N2C(=O)CC(Cc3cc(C)cc(C)c3)C2=O)c1 (stereo not drawn),0,9661,-4,-4,-1.2,-12,-15
C/C(CC(=O)N(C(C)C)C(C)C)=N\NC(=O)c1ccccc1Br,x,2360,-1,x,x,-8,x
N#C/C(=N\Nc1cccc([N+](=O)[O-])c1)C(=O)c1ccc(Br)cc1,x,4601,19,x,x,-28,x
CCC(C)NS(=O)(=O)c1ccc(OCC(=O)N2CCCC2)cc1 (stereo not drawn),0,11691,18,6,2.4,-11,8
COc1ccccc1CNC(=O)C(NS(=O)(=O)c1ccc2c(c1)OCCO2)C(C)C (stereo not drawn),7,2595,0,-2,5.4,-15,7
COc1ccc2c(c1)sc1nc(-c3ccccc3)cn12,x,2529,16,48,18,89*,x
COc1cccc(OC)c1C(=O)Nc1nc2cc3c(cc2s1)OCO3,-3,4959,-8,6,2.3,-12,5
O=C(c1nc[nH]c1C(=O)N1CCN(c2ccccc2)CC1)N1CCN(c2ccccc2)CC1,7,3152,x,1,2.7,-35,10
O=S(=O)(c1ccc(-c2csc(Nc3ccc(F)cc3)n2)cc1)N1CCCC1,0,1909,5,-15,2.4,-4,7
COc1ccc(CS(=O)(=O)CC2(O)CCN(C(=O)c3cccc(C(F)(F)F)c3)CC2)cc1,10,4258,5,4,4.4,-11,-10
CC(=O)c1ccc(OCC(O)CN2CCN(Cc3ccc4c(c3)OCO4)CC2)cc1 (stereo not drawn),x,4625&5046,0&4,6&3,-1.4&-0.6,-46&-8,x
CC(C)[C@H](NC(=O)Nc1cccc(C(F)(F)F)c1)C(=O)O,5,2455,-2,5,-6.9,-22,6
Cc1ccccc1CC(=O)Nc1ccc(C(=O)N2CCCC2)cc1,3,5238,-3,2,0.8,-7,0
CCC1CCCCN1CCCNC(=O)CCC(=O)N1CCOc2ccccc21 (stereo not drawn),-7,6002,7,-7,-4.5,-1,-1
CC(C)(C)c1ccc(-c2nnc(N)o2)cc1,-3,4016,0,-3,2.5,-41,2
O=C(CN1C(=O)NC2(CCCCC2)C1=O)N1CCN(S(=O)(=O)c2ccc(Cl)s2)CC1,1,3756,x,2,-2.2,-6,-6
Cc1ccc(NC(=O)c2cnc3ccccc3n2)cc1C,0,5834,-1,-2,-0.4,-50,4
Cc1ccc2nc(Nc3nc(C)cc(C(F)(F)F)n3)nc(C)c2c1,42,7545,-9,4,3.0,-7,-53
O=C(Nc1ccc(F)cc1)c1sc2cc(C(F)(F)F)cnc2c1-c1cccs1,x,2516,8,8,5.3,-4,x
COc1cc2cc(Oc3ccc4ccc(=O)oc4c3)c(=O)oc2cc1O,x,5535,7,4,1.0,-8,x
C=CC[n+]1c(/C=C2\C=Cc3cc(C)ccc3N2CC)ccc2ccccc21,x,6139,26,100*,100*,-28,x
COc1cc(-c2noc(CCCC(=O)NCc3ccco3)n2)cc(OC)c1OC,-1,21043*,3,2,1.9,-11,1
O=C(Oc1coc(CSc2nnc(NC(=O)C3CC3)s2)cc1=O)c1ccccc1,6,2569,-4,11,1.5,-13,5
CC1CN(C(=O)c2cc3cc(Br)ccc3[nH]2)CC(C)O1 (stereo not drawn),1,3166,-2,8,14,-10,12
Cc1cccc(OCC(=O)N(Cc2ccco2)C2CCS(=O)(=O)C2)c1 (stereo not drawn),4,5659,8,0,3.4,5,4
CC(CCc1ccc2c(c1)OCO2)=NNC(=O)c1ccccc1Br,0,x,x,-1,3.2,x,13
COc1cc(/C=C(\C#N)C(=O)c2c(C)[nH]c3ccccc23)cc(OC)c1OC,-13,2540,-19,-4,2.9,-16,-13
O=C(/C=C/c1ccc2c(c1)OCCCO2)c1ccccc1O,1,2508,-17,8,1.3,-94,10
Cc1ccc(-c2nnc(SCC(=O)N/N=C/c3c(C)nn(-c4ccccc4)c3C)n2-c2ccccc2)cc1,x,2269,-10,x,x,-17,x
O=[n+]1c2c(n([O-])c3ccccc31)CCCC2,11,16483*,-2,-1,0.8,-9,5

High-throughput results (PubChem BioAssay)
